Source: PubChem (National Center for Advancing Translational Sciences (NCATS))
TRPV1 PAM – potentiators of human vanilloid receptor 1 (TRPV1); TRPV1-expressing cells, Fluo-8 calcium influx, capsaicin EC20 potentiation; host cell line not named in the record; control for the full effect not named in the record; 320,000 compounds, 0.02% hits; potentiation, % at 8.33 µM; active means potentiation above 80%; inconclusive means 30% to 80%; inactive means below 30%; also: 0% is about no effect
Target sequence (Q8NER1 whole entry, looked up): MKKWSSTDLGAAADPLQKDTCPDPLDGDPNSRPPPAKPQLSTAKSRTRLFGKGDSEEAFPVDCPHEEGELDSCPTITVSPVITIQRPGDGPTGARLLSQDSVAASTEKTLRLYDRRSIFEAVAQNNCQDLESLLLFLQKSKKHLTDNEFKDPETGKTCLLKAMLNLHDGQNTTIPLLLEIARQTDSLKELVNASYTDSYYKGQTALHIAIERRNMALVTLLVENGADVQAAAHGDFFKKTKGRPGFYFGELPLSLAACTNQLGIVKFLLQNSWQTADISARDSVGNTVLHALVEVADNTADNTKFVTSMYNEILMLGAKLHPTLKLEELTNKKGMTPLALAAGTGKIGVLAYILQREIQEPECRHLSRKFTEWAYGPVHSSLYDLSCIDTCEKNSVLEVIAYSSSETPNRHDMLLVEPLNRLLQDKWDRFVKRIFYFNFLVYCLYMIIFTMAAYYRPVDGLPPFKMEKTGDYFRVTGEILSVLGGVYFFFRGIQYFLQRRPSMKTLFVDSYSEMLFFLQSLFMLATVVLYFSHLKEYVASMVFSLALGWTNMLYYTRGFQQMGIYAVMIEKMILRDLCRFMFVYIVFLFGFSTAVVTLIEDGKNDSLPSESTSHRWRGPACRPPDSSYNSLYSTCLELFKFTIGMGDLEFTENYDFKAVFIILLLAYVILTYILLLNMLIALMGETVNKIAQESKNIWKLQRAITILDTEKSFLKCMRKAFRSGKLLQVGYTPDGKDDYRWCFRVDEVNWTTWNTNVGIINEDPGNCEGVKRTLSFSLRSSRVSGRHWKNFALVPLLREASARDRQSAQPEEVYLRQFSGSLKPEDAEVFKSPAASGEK
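TRPV1-expressing cells were cultured overnight at 35.5C and loaded with Fluo-8 calcium dye for 40 to 90 min at room temperature. After a 10 s baseline, compound was added and calcium influx was read kinetically for 3 min (ex 480/em 520 nm).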
CtBP-E1A blk – CtBP/E1A binding inhibition | AlphaScreen GST-E1A/His-CtBP binding, 1536-well; stronger effect = lower value; control for the full effect not named in the record | activity change, % (test concentration not listed) | 340,000 compounds, 0.49% hits | AID 651724; in the data active means activity change below about -65%; inconclusive means about -30% to -65%; inactive means above about -30%; also: % is scaled to controls: 0 for no effect and ±100 for the full control effect
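Protein mix (5X: 125 nM each GST-E1A, His-CtBP) was incubated with pinned compound 2 h at 37 deg C in dark, in 50 mM Tris pH 8.0 buffer with 300 mM NaCl. Glutathione donor and nickel acceptor beads followed; AlphaScreen signal read after 1 h.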
TRPML1 agonist – agonists of human TRPML1 channel; AID 624414; activation, % (concentration not given with the values); Q9GZU1; 410,000 compounds, 0.12% hits; TRPML1-expressing cells, Ca2+ dye fluorescence, FDSS; host cell line not named in the record; reference of the full effect not given here; in the data active = activation above about 50%; inconclusive = about 30% to 50%; inactive = below about 30%; also: 0% is about no effect; the text of the record puts the active cut at 80%
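In this qHTS format, compounds were pin-transferred onto Ca8-dye-loaded TRPML1-DL cells induced with Tet overnight, and intracellular Ca2+ fluorescence was recorded kinetically for 110 s after a 10 s baseline. A subsequent 4uM final 54-4 (EC80) addition followed by a second 110 s read served as the antagonist phase.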
D2 potentiator – human D2 receptor positive allosteric modulation; potentiation, % (no concentration beside the values); 360,000 compounds, 0.23% hits; P14416; DiscoveRx D2 beta-arrestin cells, luminescence, 90 min; 100% = 57 uM dopamine signal; active = potentiation of 50% or more; inconclusive = 30% to 50%; inactive = 30% or less;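 also: compound concentration not given in the record; tested on top of an EC20 dose of dopamine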
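PathHunter beta-arrestin assay in DiscoveRx D2 cells. Compounds were added with an EC20 of dopamine (50 nM final) for 90 min at 37 deg C. Luminescence was read 1 h after detection reagent, with 57 uM dopamine as the EC100 control.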
Six1-Eya2 inh – inhibitors of human Six1/Eya2 interaction; Q15475+O00167; AlphaScreen GST-Six1/His-Eya2 binding, biochemical; stronger effect = lower value; control for the full effect not named in the record; activity change, % (concentration not given with the values); 360,000 compounds, 0.56% hits; in the data active = activity change below about -65%; inconclusive = about -30% to -65%; inactive = above about -30%; also: % is scaled to controls: 0 for no effect and ±100 for the full control effect
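Six1/Eya2 binding was read as AlphaScreen signal after compounds were pinned into GST-Six1 plus His-tagged Eya2 (5X stock 250/500 nM) in pH 8.0 Tris/NaCl/TCEP buffer, beads added, then incubated 1 h, 37 C, dark.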
TRPML1 blocker – inhibitors of human TRPML1 channel; Q9GZU1; TRPML1-inducible cells, Ca2+ dye fluorescence, FDSS; stronger effect = lower value; inhibition of EC80 agonist-evoked calcium signal; activity change, negative = inhibition, % (no concentration beside the values); 390,000 compounds, 0.02% hits; in the data active means activity change below about -50%; inconclusive means about -30% to -50%; inactive means above about -30%;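 also: stimulus is agonist 54-4 at its EC80 concentration; % is scaled to controls: 0 for no effect and ±100 for the full control effect; compound concentration not given in the record; the text of the record puts the active cut at -80%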
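Tet-induced TRPML1-DL cells loaded with Ca8 no-wash calcium dye were read kinetically on FDSS. Compound addition was followed by EC80 agonist 54-4 (4 uM final); inhibition was read over 110 s.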
An asterisk follows results filed as active; & = joins results of further samples.

How did CC(NC(=O)C(=O)NN=C1CCCC1)c1ccccc1 (stereo not given) do in these assays?
TRPV1 PAM: 2; CtBP-E1A blk: 13; TRPML1 agonist: -0.6; D2 potentiator: 13; Six1-Eya2 inh: 1; TRPML1 blocker: 7

Results for CCOc1ccc(NC(=O)NCCN2CCN(c3ccccc3F)CC2)cc1 ?
TRPV1 PAM: 22; CtBP-E1A blk: -5; TRPML1 agonist: 1.7&1.1; D2 potentiator: -8; Six1-Eya2 inh: -16; TRPML1 blocker: -25&1

What do the screens show for `Nc1nc(N(Cc2ccccc2)Cc2ccccc2)nc(C(F)(F)F)n1`?
TRPV1 PAM: 1; CtBP-E1A blk: -12; TRPML1 agonist: 4.5; D2 potentiator: -2; Six1-Eya2 inh: 3; TRPML1 blocker: 43

What do the screens show for `CCCC(=O)N1CCN(c2ccc(NC(=O)C(C)(C)C)cc2)CC1`?
TRPV1 PAM: -25; CtBP-E1A blk: 8; TRPML1 agonist: 0.4; D2 potentiator: 2; Six1-Eya2 inh: 7; TRPML1 blocker: 31

How did O=C(CSc1cccc[n+]1[O-])c1ccc(Cl)s1 do in these assays?
TRPV1 PAM: -4; CtBP-E1A blk: -25; TRPML1 agonist: -0.3; D2 potentiator: -6; Six1-Eya2 inh: -7; TRPML1 blocker: 11

Results for CC1(C)NC(=O)N(CC(=O)OCC(=O)c2ccc(Cl)s2)C1=O ?
CtBP-E1A blk: -3; TRPML1 agonist: 0.8; D2 potentiator: -7; Six1-Eya2 inh: -7; TRPML1 blocker: 6

How did CCOc1ccc2ncc(S(=O)(=O)c3ccccc3)c(N3CCN(c4ccccc4)CC3)c2c1 do in these assays?
CtBP-E1A blk: -1; TRPML1 agonist: 0.6; D2 potentiator: 0; Six1-Eya2 inh: 5; TRPML1 blocker: 13

Results for C/C(=N/NC(=O)c1ccc(C)s1)c1cccc(NC(=O)COc2ccc(Cl)cc2Cl)c1 ?
TRPV1 PAM: -1; CtBP-E1A blk: 0; TRPML1 agonist: 0.5; D2 potentiator: -25; Six1-Eya2 inh: 22; TRPML1 blocker: -4

How did CCCCNC(=O)CCSc1nc2nc(C)cc(C)n2n1 do in these assays?
TRPV1 PAM: 0; CtBP-E1A blk: -2; TRPML1 agonist: 0.6; D2 potentiator: -2; Six1-Eya2 inh: -1; TRPML1 blocker: -4

Results for Cc1cc(C)c(-c2cc(C(=O)Nc3c(C)n(C)n(-c4ccccc4)c3=O)[nH]n2)c(O)c1 ?
TRPV1 PAM: 12; CtBP-E1A blk: 10; TRPML1 agonist: 1.2; D2 potentiator: -6; Six1-Eya2 inh: 3; TRPML1 blocker: 5

How did CCc1ccccc1N/C(=N\S(=O)(=O)c1ccccc1)C(F)(F)F do in these assays?
TRPV1 PAM: -7; CtBP-E1A blk: 3; TRPML1 agonist: 0.8; D2 potentiator: -20; Six1-Eya2 inh: -2; TRPML1 blocker: 4

Results for CCCS(=O)(=O)NC(=O)C1(C)CCN(C(=O)c2c(C)noc2C)C1 (stereo not given) ?
CtBP-E1A blk: 6; TRPML1 agonist: -0.5; D2 potentiator: -9; Six1-Eya2 inh: 12

Results for CN(C)S(=O)(=O)c1ccc(Cl)c(C(=O)NCC2CCCCC2)c1 ?
TRPV1 PAM: -22; CtBP-E1A blk: 9; TRPML1 agonist: 0.3; D2 potentiator: -5; Six1-Eya2 inh: 3; TRPML1 blocker: 2

How did CC(C)c1ccc(NC(=O)c2cc(S(=O)(=O)N3CCCC3)c[nH]2)cc1 do in these assays?
TRPV1 PAM: -16; CtBP-E1A blk: -4; TRPML1 agonist: -0.8; D2 potentiator: -8; Six1-Eya2 inh: -8; TRPML1 blocker: 2

What do the screens show for `O=C(NCC1CCCN(Cc2ccc3c(c2)OCCO3)C1)c1ccc2c(c1)OCO2` (stereo not given)?
TRPV1 PAM: -4; CtBP-E1A blk: -14; TRPML1 agonist: -0.1; D2 potentiator: -23; Six1-Eya2 inh: 5; TRPML1 blocker: -11

What do the screens show for `O=C(O)c1ccccn1`?
TRPV1 PAM: 10; CtBP-E1A blk: -66*; TRPML1 agonist: -0.7; D2 potentiator: -4; Six1-Eya2 inh: inconclusive; TRPML1 blocker: 13

Results for Cn1nnnc1SCC(=O)N1CCN(S(=O)(=O)c2ccc(Cl)cc2)CC1 ?
TRPV1 PAM: 7; CtBP-E1A blk: 10; TRPML1 agonist: 0.3; D2 potentiator: -1; Six1-Eya2 inh: 0; TRPML1 blocker: -2

What do the screens show for `COC(=O)CNC(=O)CSc1nc2sccc2c(=O)n1-c1ccccc1`?
TRPV1 PAM: 5; CtBP-E1A blk: 27; TRPML1 agonist: -0.6; D2 potentiator: -6; Six1-Eya2 inh: 0; TRPML1 blocker: 20

What do the screens show for `Cc1cc(=O)oc2cc(NC(=O)Cc3ccccc3[N+](=O)[O-])ccc12`?
TRPV1 PAM: -13; TRPML1 agonist: -0.9; D2 potentiator: -1; Six1-Eya2 inh: -1; TRPML1 blocker: 7

What do the screens show for `CCc1noc(C)c1C(=O)N(C)CC(=O)Nc1ccc(Cl)c(Cl)c1`?
TRPV1 PAM: -6; CtBP-E1A blk: 6; TRPML1 agonist: 0.8; D2 potentiator: -35; Six1-Eya2 inh: 0; TRPML1 blocker: 10

Ordered by SMILES length (smallest number first): five of the compounds above
How did CC(NC(=O)C(=O)NN=C1CCCC1)c1ccccc1 (stereo not given) do in these assays?
TRPV1 PAM: 2; CtBP-E1A blk: 13; TRPML1 agonist: -0.6; D2 potentiator: 13; Six1-Eya2 inh: 1; TRPML1 blocker: 7

Results for CN(C)S(=O)(=O)c1ccc(Cl)c(C(=O)NCC2CCCCC2)c1 ?
TRPV1 PAM: -22; CtBP-E1A blk: 9; TRPML1 agonist: 0.3; D2 potentiator: -5; Six1-Eya2 inh: 3; TRPML1 blocker: 2

Results for CCCS(=O)(=O)NC(=O)C1(C)CCN(C(=O)c2c(C)noc2C)C1 (stereo not given) ?
CtBP-E1A blk: 6; TRPML1 agonist: -0.5; D2 potentiator: -9; Six1-Eya2 inh: 12

How did CC(C)c1ccc(NC(=O)c2cc(S(=O)(=O)N3CCCC3)c[nH]2)cc1 do in these assays?
TRPV1 PAM: -16; CtBP-E1A blk: -4; TRPML1 agonist: -0.8; D2 potentiator: -8; Six1-Eya2 inh: -8; TRPML1 blocker: 2

Results for C/C(=N/NC(=O)c1ccc(C)s1)c1cccc(NC(=O)COc2ccc(Cl)cc2Cl)c1 ?
TRPV1 PAM: -1; CtBP-E1A blk: 0; TRPML1 agonist: 0.5; D2 potentiator: -25; Six1-Eya2 inh: 22; TRPML1 blocker: -4

The list goes on.
How did CC1Nc2nc(N(C)C)[nH]c(=O)c2NC1C (stereo not given) do in these assays?
TRPV1 PAM: -20; CtBP-E1A blk: 1; TRPML1 agonist: 0.0; D2 potentiator: -5; Six1-Eya2 inh: -27; TRPML1 blocker: -14

What do the screens show for `CCOc1ccccc1N1CC(C(=O)Nc2ccc(S(=O)(=O)N3CCCCC3)cc2)CC1=O` (stereo not given)?
TRPV1 PAM: -7; CtBP-E1A blk: 5; TRPML1 agonist: 1.1; D2 potentiator: -2; Six1-Eya2 inh: 3; TRPML1 blocker: -9

Results for CCN(CC)CCCNc1ccc2ncn3c4ccc(O)cc4c(=O)c1c23 ?
CtBP-E1A blk: 1; TRPML1 agonist: inconclusive; D2 potentiator: -25; Six1-Eya2 inh: inconclusive; TRPML1 blocker: 8

Results for COc1cc2c(cc1OC)C(NC(=O)C(F)(F)F)C/C2=N\O (stereo not given) ?
TRPV1 PAM: 21; CtBP-E1A blk: -3; TRPML1 agonist: -0.1; D2 potentiator: -2; Six1-Eya2 inh: 1; TRPML1 blocker: 25

What do the screens show for `CCO[C@@H]1c2c(ccc3ccc(=O)oc23)OC(C)(C)[C@H]1O`?
TRPV1 PAM: 3; CtBP-E1A blk: 6; TRPML1 agonist: -0.4; D2 potentiator: -4; Six1-Eya2 inh: 2; TRPML1 blocker: 0

What do the screens show for `N#Cc1ccc(-c2cccnc2)nc1SCC(N)=O`?
TRPV1 PAM: 15; CtBP-E1A blk: -1; TRPML1 agonist: 3.2; D2 potentiator: 2; Six1-Eya2 inh: 5; TRPML1 blocker: 10

Results for COc1ccccc1NC(=O)/C(N=Nc1ccc(C)c(S(=O)(=O)Nc2ccccc2Cl)c1)=C(\C)O ?
CtBP-E1A blk: -5; TRPML1 agonist: 1.4; D2 potentiator: 1; Six1-Eya2 inh: -30; TRPML1 blocker: 25

What do the screens show for `Cn1c(SCC(=O)c2ccc3c(c2)Cc2ccccc2-3)nnc1-c1cccc(N)c1`?
TRPV1 PAM: 26; CtBP-E1A blk: -4; TRPML1 agonist: -0.1; D2 potentiator: 4; Six1-Eya2 inh: -6; TRPML1 blocker: 6

How did Cn1ncc([N+](=O)[O-])c1C(=O)Nc1ccccc1C#N do in these assays?
CtBP-E1A blk: 0; TRPML1 agonist: 0.0; D2 potentiator: -3; Six1-Eya2 inh: -12; TRPML1 blocker: -2

Results for CCCCc1nc(SCC(=O)Nc2nnc(CCCC)s2)n[nH]1 ?
TRPV1 PAM: 6; TRPML1 agonist: 1.1; D2 potentiator: -2; Six1-Eya2 inh: -2; TRPML1 blocker: 0

How did O=C(CCSCc1ccc(Cl)cc1)NCc1cccs1 do in these assays?
TRPV1 PAM: -3; CtBP-E1A blk: -5; TRPML1 agonist: -0.4; D2 potentiator: -1; Six1-Eya2 inh: -12; TRPML1 blocker: -11

How did O=C(Nc1ccccc1N1CCOCC1)c1cc2c(s1)CCCCC2 do in these assays?
TRPV1 PAM: -2; CtBP-E1A blk: -7; TRPML1 agonist: 0.7; D2 potentiator: -6; Six1-Eya2 inh: -8; TRPML1 blocker: 65

What do the screens show for `CC(OC(=O)c1ccco1)C(=O)NC1CCCC1` (stereo not given)?
TRPV1 PAM: -12; CtBP-E1A blk: 1; TRPML1 agonist: 0.4; D2 potentiator: 0; Six1-Eya2 inh: 10; TRPML1 blocker: -28

How did O=C(N/N=C/c1cccs1)c1ccc2ncccc2c1 do in these assays?
TRPV1 PAM: -19; CtBP-E1A blk: -17; TRPML1 agonist: -0.3; D2 potentiator: -15; Six1-Eya2 inh: -6; TRPML1 blocker: 15

How did CCOC(=O)C1(C)CCN1C(=O)c1ccccc1Br (stereo not given) do in these assays?
CtBP-E1A blk: -1; TRPML1 agonist: 0.0; D2 potentiator: -5; Six1-Eya2 inh: 2; TRPML1 blocker: -5

Results for N/C(=N\OC(=O)C12CC3CC(CC(C3)C1)C2)c1ccncc1 ?
TRPV1 PAM: -7; CtBP-E1A blk: 10; TRPML1 agonist: 61*; D2 potentiator: -3; Six1-Eya2 inh: 10; TRPML1 blocker: 12

Results for O=C(NC1CCCCC1)C(c1ccccn1)N(C(=O)c1csnn1)C1CC1 (stereo not given) ?
TRPV1 PAM: -1; CtBP-E1A blk: -3; TRPML1 agonist: -0.3; D2 potentiator: -10; Six1-Eya2 inh: 3; TRPML1 blocker: -3

Results for COc1ccc(-n2c(C)cc(/C=C3\C(=N)N4N=C(CC(=O)N5CCOCC5)SC4=NC3=O)c2C)c(OC)c1 ?
TRPV1 PAM: -6; TRPML1 agonist: 1.1; D2 potentiator: -13; Six1-Eya2 inh: -12; TRPML1 blocker: -2
